Screens from PubChem BioAssay.
rRNA inh HTS: reduced GFP signal of wild-type E. coli, primary screen, bacterial rRNA inhibitor project, GFP/RFP fluorescence, OD600, single point; E. coli WT GFP vs humanized-ribosome RFP mutants, 24 h; stronger effect = lower value; DMSO median 0, no signal -100; GFP signal change (wild-type ribosome), % (concentration not given with the values); 350,000 tested, 1.6% active;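 active = significant combined selectivity score with lowered wild-type GFP, culture density cut under 30%, mutant RFP and density less affected; inactive = any of these conditions unmet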; note: one replicate is shown; some compounds called inactive have numbers as strong as hits
AF4-AF9 inh: inhibitors of AF4 peptide binding to AF9, primary screen, biochemical, AlphaScreen, biotin-AF4 peptide, FLAG-AF9, single point. 350,000 tested, 0.47% active. AID 651704, 2012. Protein AF-9 (Homo sapiens), P42568. inhibition, % at 10 µM;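 active = every replicate reaching a set inhibition limit, whatever the replicate mean, cut at about 25% in these data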;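 note: 0% = plate neutral control median and 100% = total signal loss; the record names both 10 and 1 µM as test concentration; the first replicate is given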
Target sequence (P42568 whole entry, looked up): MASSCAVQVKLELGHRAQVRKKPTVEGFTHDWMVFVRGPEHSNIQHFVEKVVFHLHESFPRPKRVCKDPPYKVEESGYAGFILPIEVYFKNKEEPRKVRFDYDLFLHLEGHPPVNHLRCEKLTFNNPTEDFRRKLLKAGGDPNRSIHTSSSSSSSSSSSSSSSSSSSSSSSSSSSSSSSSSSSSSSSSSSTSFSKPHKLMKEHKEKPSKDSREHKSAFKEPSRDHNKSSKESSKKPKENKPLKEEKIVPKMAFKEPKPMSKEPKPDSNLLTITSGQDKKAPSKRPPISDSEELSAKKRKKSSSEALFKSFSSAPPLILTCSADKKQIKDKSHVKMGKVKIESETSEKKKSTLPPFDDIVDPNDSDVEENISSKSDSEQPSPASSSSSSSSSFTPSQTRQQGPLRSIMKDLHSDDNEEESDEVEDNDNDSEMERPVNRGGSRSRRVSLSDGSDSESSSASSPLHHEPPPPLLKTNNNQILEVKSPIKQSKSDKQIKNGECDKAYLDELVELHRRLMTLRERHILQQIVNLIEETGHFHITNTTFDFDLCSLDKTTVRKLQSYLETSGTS
rRNA inh HTS OD600: further read-out of rRNA inh HTS, marked with its call; OD600 change, %; measured here: OD600 growth;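 optical density of the mix in the first replicate; 0 = DMSO median and -100 = no signal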
rRNA inh HTS RFP: second read-out of rRNA inh HTS, no call of its own (marks repeat the call); RFP signal change, %; measured here: RFP humanized mutant strains;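 first replicate; 0 = DMSO median and -100 = no signal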
The depositor's hits bear a star. Only part of the results is shown (hit frequency here may not be typical).

SMILES | rRNA inh HTS | rRNA inh HTS OD600 | rRNA inh HTS RFP | AF4-AF9 inh
C[C@@H]1CN([C@H](C)CO)S(=O)(=O)c2ccc(-c3ccccc3F)cc2O[C@@H]1CN(C)Cc1cncnc1 | -4 | -1 | -0.8 | 5.9
C[C@H](CO)N1C[C@H](C)[C@H](CN(C)C(=O)Nc2ccc(F)cc2)Oc2ncc(C3=CCCC3)cc2C1=O | -3 | -1 | 1.5 | -0.7
CC(C)NC(=O)NCC[C@H]1CC[C@H](NC(=O)Nc2ccccc2)[C@H](CO)O1 | 1 | 3 | -1.7 | 3.6
C[C@H](NC(=O)C[C@H]1C=C[C@H](NC(=O)Cc2ccccn2)[C@H](CO)O1)c1ccccc1 | -1 | 0 | -1.7 | 1.7
C[C@@H]1CCCCO[C@@H](CN(C)C(=O)C2CCCCC2)[C@H](C)CN([C@H](C)CO)C(=O)c2cc(NC(=O)Nc3ccc4c(c3)OCO4)ccc2O1 | 0 | -6 | -1.0 | 4.6
CO[C@@H]1CN(C)C(=O)c2cc(NS(=O)(=O)c3ccccc3)ccc2OC[C@@H](C)N(C)C[C@@H]1C | -1 | 1 | -0.9 | 0.4
O=S(=O)(N[C@@H]1CC[C@@H](CCn2cc(-c3cccc(F)c3)nn2)O[C@H]1CO)c1ccccc1 | -1 | -7 | 2.6 | -0.4
C[C@@H]1CN([C@@H](C)CO)C(=O)c2cccc(NS(=O)(=O)c3ccc(Cl)cc3)c2O[C@@H]1CN(C)CC1CC1 | 2 | 20 | -1.4 | -1.2
C[C@H]1CCCCO[C@@H](CN(C)CC2CCCCC2)[C@@H](C)CN([C@@H](C)CO)C(=O)c2cc(NC(=O)Nc3cccc4ccccc34)ccc2O1 | -3 | -10 | 9.5 | 4.9
O=C(C[C@H]1C[C@H]2c3cc(NC(=O)Cc4ccncc4)ccc3O[C@H]2[C@H](CO)O1)NCCN1CCCCC1 | 2 | 0 | 0.0 | 8.6
COc1ccc2c3c(n(C)c2c1)[C@H](CO)N(C(=O)CC1CC1)CC31CN(Cc2nccs2)C1 | -1 | -11 | 5.0 | 2.4
CN1CCN(C(=O)C[C@@H]2CC[C@@H]3[C@H](COC[C@H](O)CN3C(=O)C3CC3)O2)CC1 | 0 | -3 | 0.8 | -0.9
C[C@@H]1CN([C@@H](C)CO)C(=O)c2cc(NS(=O)(=O)c3ccc(F)cc3)ccc2O[C@@H](C)CCCCO[C@@H]1CN(C)S(=O)(=O)c1cn(C)cn1 | 0 | -2 | 0.1 | -1.7
C[C@H]1CN([C@@H](C)CO)C(=O)Cc2cc(NC(=O)CCN3CCOCC3)ccc2O[C@H]1CN(C)S(=O)(=O)c1ccc(Cl)cc1 | 1 | 3 | 0.5 | 1.1
COc1ccc(N2CCN(CC(=O)Nc3ccc(C)cc3Br)CC2)cc1 | 3 | 3 | -0.7 | -0.6
COCC(=O)NC[C@H]1[C@H](c2ccc(C3=CCCC3)cc2)[C@H](CO)N1C(C)=O | 0 | 9 | 0.1 | 0.7
CCNC(=O)C[C@@H]1CC[C@@H](NC(=O)C2CCC2)[C@H](CO)O1 | -2 | -3 | -1.0 | -2.0
O=C(Cc1ccccn1)NCC[C@@H]1CC[C@H](NC(=O)CN2CCOCC2)[C@H](CO)O1 | 0 | 2 | -0.7 | -1.0
O=C(C[C@@H]1C=C[C@H](NC(=O)Nc2cc(F)ccc2F)[C@@H](CO)O1)Nc1ccc(-c2ccccc2)cc1 | -9 | -12 | 1.9 | -2.5
C[C@@H]1CN([C@@H](C)CO)C(=O)c2cc(NC(=O)Nc3ccc(C(F)(F)F)cc3)ccc2O[C@@H]1CN(C)Cc1ccc(C(=O)Nc2ccccc2N)cc1 | -7 | -28 | 5.6 | -0.8
O=C(NCC1CC1)[C@H]1[C@H](CO)[C@H]2Cn3c(ccc(-c4ccncc4)c3=O)[C@@H]1N2CC1CC1 | -1 | 3 | -1.9 | -0.2
CC(C)NC(=O)Nc1ccc2c(c1)CC(=O)N([C@H](C)CO)C[C@H](C)[C@@H](CN(C)C(=O)NC1CCCCC1)O2 | -1 | 3 | -3.5 | -1.7
O=C(C1CCC1)N1CC2(C1)[C@H](c1ccccc1)[C@@H](CO)N2Cc1ccccc1F | -4 | -8 | 3.3 | -3.3
O=C(c1ccc(Cl)cc1)c1cccc(O)c1 | -51 | -73 | -14 | 3.0
O=C(Nc1ccc(Cl)cc1)N[C@H]1CC[C@@H](CCNS(=O)(=O)c2ccccc2F)O[C@H]1CO | -5 | -16 | 2.1 | -1.9
(cont.)
SMILES | rRNA inh HTS | rRNA inh HTS OD600 | rRNA inh HTS RFP | AF4-AF9 inh
CC(C)(C)c1ccc(NC(=O)c2cc(C3CCCN(C(=O)CCc4ccccc4)C3)on2)cc1 (configuration not stated) | 0 | 8 | -0.1 | -2.6
C[C@H]1CN([C@@H](C)CO)C(=O)c2c(c3ccccc3n2C)-c2ccccc2CO[C@@H]1CN(C)Cc1cccc(F)c1 | -7 | -7 | 7.7 | 8.7
COCC(=O)N1CC[C@@H]2[C@H]1c1cc(-c3ccc(F)cc3)ccc1N(C)[C@H]2CO | -5 | -16 | 1.8 | 2.6
Cc1ccc(-c2cnc3c(c2)C(=O)N([C@H](C)CO)C[C@H](C)[C@@H](CN(C)C(=O)c2ccncc2)O3)cc1 | -3 | 3 | 0.2 | -3.7
COC(=O)[C@]12C[C@H](CC(=O)NCc3cccs3)C(=O)N(Cc3ccc4c(c3)OCO4)C1=C[C@H](COCc1ccccc1)O[C@@H]2C | -4 | -9 | 2.2 | -3.4
O=S(=O)(NCc1ccccc1)c1cc(Br)ccc1Br | -12 | -25 | 8.8 | -1.9
Cc1ccc(-c2cnc3c(c2)C(=O)N([C@H](C)CO)C[C@H](C)[C@H](CN(C)C(=O)c2ccccc2)O3)cc1 | -2 | -2 | -1.1 | -0.8
C[C@@H]1CN([C@H](C)CO)C(=O)c2cccc(NC(=O)NC3CCCCC3)c2O[C@@H]1CN(C)S(C)(=O)=O | 0 | 13 | 3.7 | 0.1
C[C@H](CO)N1C[C@H](C)[C@H](CN(C)Cc2ccncc2)OCCCC[C@H](C)Oc2ccc(NC(=O)CCCN(C)C)cc2C1=O | 0 | 10 | -2.5 | 0.4
C[C@H]1CN([C@@H](C)CO)C(=O)c2cccc(NC(=O)C3CC3)c2O[C@H]1CN(C)Cc1ccc(C(=O)O)cc1 | 4 | 16 | -1.7 | -2.3
C[C@@H]1CN([C@@H](C)CO)C(=O)c2cc(NS(=O)(=O)c3cn(C)cn3)ccc2O[C@@H]1CN(C)Cc1ccc(-c2ccccc2)cc1 | 1 | 1 | 1.1 | -2.3
CC(C)NC(=O)N1C[C@H]2[C@@H](c3ccccc31)[C@H](CO)N2C(=O)c1ccccn1 | 1 | 4 | 0.9 | -0.9
CC(OC(=O)[C@@H](NS(=O)(=O)c1ccccc1)C(C)C)C(=O)c1c(N)n(C)c(=O)n(C)c1=O (some centres not stated) | 8 | 15 | 1.8 | -2.9
Cc1noc(C)c1S(=O)(=O)Nc1ccc2c(c1)C(=O)N([C@@H](C)CO)C[C@H](C)[C@H](CN(C)S(=O)(=O)c1ccc(Cl)cc1)OCCCC[C@H](C)O2 | 4 | 2 | 1.9 | 4.7
C[C@@H]1CN([C@@H](C)CO)C(=O)c2cccc(NS(=O)(=O)c3ccccc3)c2O[C@@H]1CN(C)S(=O)(=O)c1cn(C)cn1 | 1 | 4 | -1.6 | -15
COc1cc(C(O)c2nc(-c3ccc(F)cc3OC)cs2)ccc1F (configuration not stated) | 0 | 14 | -0.5 | -1.1
C[C@@H]1CN([C@H](C)CO)C(=O)Cc2cc(NC(=O)CCN3CCOCC3)ccc2O[C@H]1CN(C)C(=O)NC1CCCCC1 | 3 | 6 | -0.6 | -2.5
Cc1cc(C(=O)Nc2cccc3c2O[C@@H](CN(C)C(=O)Nc2c(C)noc2C)[C@@H](C)CN([C@H](C)CO)C3=O)n(C)n1 | -2 | 1 | -2.0 | -3.5
O=C(Nc1ccc(F)cc1)N[C@@H]1CC[C@@H](CCNS(=O)(=O)c2cccc(Cl)c2)O[C@H]1CO | -4 | -9 | 1.5 | 4.5
C[C@@H]1CN([C@@H](C)CO)C(=O)c2cc(NC(=O)CCC(F)(F)F)ccc2O[C@@H](C)CCCCO[C@H]1CN(C)C(=O)C1CCCCC1 | -1 | 0 | -1.8 | -2.7
CO[C@H]1CN(C)C(=O)c2cc(NC(=O)C3CCC3)ccc2OC[C@@H](C)N(C(=O)NC(C)C)C[C@@H]1C | -2 | 7 | -1.9 | -0.8
CCN(C[C@H]1N[C@H](CO)[C@@H]1c1ccc(-c2cccc(F)c2)cc1)C(=O)CN(C)C | 0 | 5 | 9.8 | 13
CCCC(=O)Nc1ccc2c(c1)OC[C@H](C)N(C(=O)c1ccncc1)C[C@H](C)[C@H](OC)CN(C)C2=O | -1 | -2 | 0.2 | -1.3
C[C@H]1CN([C@@H](C)CO)C(=O)Cc2cc(NS(=O)(=O)c3ccc(Cl)cc3)ccc2O[C@H]1CN(C)Cc1ccncc1 | 1 | 4 | -0.1 | -1.6
C[C@H]1CCCCO[C@@H](CN(C)CC2CCCCC2)[C@@H](C)CN([C@@H](C)CO)C(=O)c2cc(NC(=O)Nc3ccc4c(c3)OCO4)ccc2O1 | -13 | -21 | 17 | -15
CC(C)NC(=O)N(C)C[C@H]1Oc2c(NS(=O)(=O)c3ccc(Cl)cc3)cccc2C(=O)N([C@H](C)CO)C[C@H]1C | 1 | -4 | -2.3 | 5.2
COc1ccc(NC(=O)N(C)C[C@@H]2Oc3ccc(NS(=O)(=O)c4ccc(Cl)cc4)cc3CC(=O)N([C@H](C)CO)C[C@H]2C)cc1 | 0 | 2 | -0.2 | -11
COc1ccc(C#Cc2ccc3c(c2)[C@H]2[C@H](CCN2S(=O)(=O)c2ccc(OC)cc2)[C@@H](CO)N3C)cc1 | 4 | 15 | 0.3 | -2.1
C[C@H]1CN([C@@H](C)CO)C(=O)c2cc(NC(=O)C3CCCCC3)ccc2O[C@H]1CN(C)Cc1ccc(C(=O)Nc2ccccc2N)cc1 | -1 | 2 | -2.3 | -0.2

Of the compounds above, these contain a Cl atom:
SMILES | rRNA inh HTS | rRNA inh HTS OD600 | rRNA inh HTS RFP | AF4-AF9 inh
C[C@@H]1CN([C@@H](C)CO)C(=O)c2cccc(NS(=O)(=O)c3ccc(Cl)cc3)c2O[C@@H]1CN(C)CC1CC1 | 2 | 20 | -1.4 | -1.2
C[C@H]1CN([C@@H](C)CO)C(=O)Cc2cc(NC(=O)CCN3CCOCC3)ccc2O[C@H]1CN(C)S(=O)(=O)c1ccc(Cl)cc1 | 1 | 3 | 0.5 | 1.1
O=C(c1ccc(Cl)cc1)c1cccc(O)c1 | -51 | -73 | -14 | 3.0
O=C(Nc1ccc(Cl)cc1)N[C@H]1CC[C@@H](CCNS(=O)(=O)c2ccccc2F)O[C@H]1CO | -5 | -16 | 2.1 | -1.9
Cc1noc(C)c1S(=O)(=O)Nc1ccc2c(c1)C(=O)N([C@@H](C)CO)C[C@H](C)[C@H](CN(C)S(=O)(=O)c1ccc(Cl)cc1)OCCCC[C@H](C)O2 | 4 | 2 | 1.9 | 4.7
O=C(Nc1ccc(F)cc1)N[C@@H]1CC[C@@H](CCNS(=O)(=O)c2cccc(Cl)c2)O[C@H]1CO | -4 | -9 | 1.5 | 4.5
C[C@H]1CN([C@@H](C)CO)C(=O)Cc2cc(NS(=O)(=O)c3ccc(Cl)cc3)ccc2O[C@H]1CN(C)Cc1ccncc1 | 1 | 4 | -0.1 | -1.6
CC(C)NC(=O)N(C)C[C@H]1Oc2c(NS(=O)(=O)c3ccc(Cl)cc3)cccc2C(=O)N([C@H](C)CO)C[C@H]1C | 1 | -4 | -2.3 | 5.2
COc1ccc(NC(=O)N(C)C[C@@H]2Oc3ccc(NS(=O)(=O)c4ccc(Cl)cc4)cc3CC(=O)N([C@H](C)CO)C[C@H]2C)cc1 | 0 | 2 | -0.2 | -11
